STK33 inh – human STK33 kinase inhibition; inhibition, % at 10 µM; hit rate 0.073% among 320,000; Q9BYT3; purified STK33, MBP phosphorylation, ADP-Glo luminescence;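 active = inhibition at or above 25%, using the most active replicate where run in duplicate; inactive = inhibition below 25%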
Target sequence (Q9BYT3 whole entry, looked up): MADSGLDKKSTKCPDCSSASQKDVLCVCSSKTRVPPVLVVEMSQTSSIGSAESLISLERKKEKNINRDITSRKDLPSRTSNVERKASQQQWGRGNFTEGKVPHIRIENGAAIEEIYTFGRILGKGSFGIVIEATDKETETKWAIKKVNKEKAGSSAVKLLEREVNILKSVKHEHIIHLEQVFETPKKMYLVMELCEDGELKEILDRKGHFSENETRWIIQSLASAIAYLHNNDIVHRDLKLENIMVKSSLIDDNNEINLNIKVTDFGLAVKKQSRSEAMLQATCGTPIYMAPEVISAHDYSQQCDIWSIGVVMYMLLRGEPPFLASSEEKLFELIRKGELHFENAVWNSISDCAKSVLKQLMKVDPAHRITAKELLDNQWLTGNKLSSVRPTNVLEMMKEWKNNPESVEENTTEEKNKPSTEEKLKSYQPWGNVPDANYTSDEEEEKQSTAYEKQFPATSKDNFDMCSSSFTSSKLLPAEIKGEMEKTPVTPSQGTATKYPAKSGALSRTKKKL
* hit, by the source's call. These rows are one share of the data; most or all hits stand in other tables.

SMILES | STK33 inh
CC1CC(=O)N(CC(=O)N2CCCC2)c2ccccc2S1 (configuration not stated) | 0.1
COc1ccc(O)c(/C=C(\C#N)C(=O)Nc2cccnc2)c1 | -1.1
O=C(c1ccc([N+](=O)[O-])cc1)N1CCc2ccccc21 | -2.1
COc1cc(NC(=O)c2ccc([N+](=O)[O-])cc2)ccc1NC(=O)C(C)C | -1.1
Cc1c(Br)c(C(F)(F)F)nn1CC(=O)NCCN1CCOCC1 | -1.4
CCc1ccc(S(=O)(=O)NCc2csc(C)n2)cc1 | 1.2
COc1cccc(C(=O)N=c2sc3c(C)ccc(OC)c3n2C)c1 | 0.7
COc1cccc(C(=O)Nc2ccc(NC(=O)C(C)(C)C)cn2)c1 | 0.8
CCN(CCCNC(=O)Cn1ncc2c(=O)oc3ccccc3c21)c1cccc(C)c1 | -0.2
COC(=O)c1cc(NC(=O)C2COc3ccccc3O2)ccc1Cl (configuration not stated) | 0.2
O=C(CSc1nnc(CNc2ccc(F)cc2)n1Cc1ccccc1)N1CCOCC1 | -2.7
O=C1C2CC=CCC2C(=O)N1c1ccc(NCCc2ccccc2F)c([N+](=O)[O-])c1 (configuration not stated) | -1.0
CS(=O)(=O)N1CCN(c2ccccc2NC(=O)CSc2nnc(-c3ccco3)o2)CC1 | -0.3
C=CCn1c(SCCNC(C)=O)nc2cc(-c3ccccc3)sc2c1=O | -0.7
COc1ccc(CCNC2CC(=O)N(CCc3ccccc3)C2=O)cc1 (configuration not stated) | 0.0
CCOC(=O)C1(Cc2cccc(OC)c2)CCCN(C(=O)c2ccc(OC)o2)C1 (configuration not stated) | -1.3
CCOC(=O)CN1CC23C=CC(O2)C(C(=O)Nc2ccc(F)cc2)C3C1=O (configuration not stated) | -2.0
C=CCN(C(=O)CSC1=NC(=O)CN1C(C)=O)c1nc(C)c(-c2ccccc2)s1 | 2.2
Cc1ccc(NC(=O)c2ccc(NS(=O)(=O)/C=C/c3ccccc3)cc2)nc1 | -1.0
NC(=O)CC(NC(=O)Cc1cccc2ccccc12)c1ccc(NCCc2cccc(F)c2)c([N+](=O)[O-])c1 (configuration not stated) | -1.3
COC(=O)CNC(=O)CCc1nnc(C2(c3ccc(Cl)cc3)CCC2)o1 | -0.5
O=C(Nc1nccs1)c1ccc(-c2ccc(F)c(Cl)c2)o1 | -0.3
CCCN1CC=C2C(C#N)=C(N)C(C#N)(C#N)C(c3cc(OC)ccc3OC)C2C1 (configuration not stated) | -2.5
OC(c1ccccn1)c1c[nH]c2ccccc12 (configuration not stated) | -0.6
N#Cc1ccccc1OCCn1cncn1 | -0.4
O=S(=O)(NCCOC12CC3CC(CC(C3)C1)C2)c1cccc2nsnc12 | -0.5
COc1ccc(S(=O)(=O)c2cnc3ccc(OC)cc3c2N2CCC3(CC2)OCCO3)cc1 | 1.0
COc1ccc(NC(=O)CN2CCC3(O)CCCCC3C2c2cc(OC)ccc2OC)cc1 (configuration not stated) | 1.9
COc1ccccc1NC(=O)CN(c1ccccc1)S(=O)(=O)c1ccccc1 | -0.9
O=C(N/N=C/c1ccccc1)c1cccc2ccccc12 | -2.0
CC(C)NC(=O)NC(=O)CSc1ncc(C(F)(F)F)cc1Cl | 0.4
COc1c(Cl)cc(C(=O)O)cc1Cl | -0.4
CCS(=O)c1ccccc1C(=O)OC(C)C(=O)Nc1ccc(S(=O)(=O)N2CCCC2)cc1 (configuration not stated) | 0.6
O=S(=O)(c1cc(Cl)ccc1Cl)n1nnc2ccccc21 | -4.3
CC1(C)CC(=O)C=C(c2ccc3c(c2)OCO3)C1 | -1.4
Cc1cc(=O)oc(C)c1C(=O)N1CCc2c([nH]c3ccccc23)C1C(C)C (configuration not stated) | -0.7
S=C(NCc1ccccc1)N1CCN(Cc2ccc3c(c2)OCO3)CC1 | -1.1
O=S(=O)(c1ccc(F)c(F)c1)N1CCN(c2ncccn2)CC1 | -1.9
COc1cccc(CN(C)C(=O)CC2C(=O)NCCN2C2Cc3ccccc3C2)c1 (configuration not stated) | -1.9
CCOc1cc(/C=C2/NC(=O)N(CC(=O)Nc3cccc(C)c3)C2=O)ccc1O | -0.4
NS(=O)(=O)c1ccc(CNC(=O)CCS(=O)(=O)Cc2ccccc2)cc1 | -1.4
O=C(N/N=C\c1ccc(COc2ccc([N+](=O)[O-])cc2)o1)c1cccc(Cl)c1 | -1.0
CC(=O)c1c(N2CCN(Cc3ccc4c(c3)OCO4)CC2)nc(=S)n(-c2ccccc2)c1C | -2.5
O=C(NCc1ccco1)c1cc([N+](=O)[O-])ccc1N1CCCCC1 | -2.1
Cc1ccc(CNC(=O)COC(=O)c2ccc(S(=O)(=O)N(C)C)cc2)cc1 | -2.3
COc1ccc(C(=O)OCC(=O)C(C)(C)C)cc1S(=O)(=O)N(C)CCc1cccnc1 | 0.3
CCOC(=O)c1ccc(NC(=S)N2CCN(CCN=CC3=C(O)CC(c4ccccc4)CC3=O)CC2)cc1 (configuration not stated) | -0.8
O=P(O)(CCc1ccccn1)CN1CCCCC1 | -0.5
O=C(COc1ccc2ccccc2c1)N1CCN(C(=O)c2ccc([N+](=O)[O-])cc2)CC1 | 0.8
CCc1cc(C(=O)NNC(=S)NC2CCCCC2)cs1 | -1.4
CCC(C(=O)N1CCCC1)n1nc(C)c2c(C)n(-c3ccccc3)nc2c1=O (configuration not stated) | -0.8
Cn1nc(/C=C/c2ccccc2)ccc1=O | 6.2
Cc1cc(C(=O)N2CCN(c3ncccn3)CC2)c(C)o1 | -0.3
CCCc1cc(-c2n[nH]c(=S)n2CC(C)C)cs1 | -2.0
O=C(Cn1nc(-c2ccccc2)ccc1=O)Nc1ccc(N2CCN(C(=O)c3cccs3)CC2)cc1 | -0.3
Cn1nccc1C(=O)N1CCc2ccccc21 | -0.5
CC(=O)Nc1ccc(NC(=O)CSc2ncc(C(=O)Nc3ccc(Cl)cc3)c(=O)n2C)cc1 | 0.2
CC(C)[C@H](NC(=O)[C@H]1N2C(=O)c3ccccc3C2SC1(C)C)C(=O)NCc1ccco1 (some centres not stated) | -2.3
COc1ccc(/C=C/C(=O)NCc2ccc(F)cc2)cc1S(=O)(=O)N1CCOCC1 | -1.4
Cc1cc(NS(=O)(=O)c2ccc(NC(=S)NC(=O)/C=C/c3ccccc3)cc2)no1 | 0.6

(next part)
SMILES | STK33 inh
COC(=O)c1cccc(NC(=O)C23CC4CC(C2)CC(n2cncn2)(C4)C3)c1 | -0.7
COc1ccc(N2CCN(C(c3ccco3)c3sc4nc(C)nn4c3O)CC2)cc1 (configuration not stated) | -1.4
O=C(N/N=C\C=C\c1ccco1)C1COc2ccccc2O1 (configuration not stated) | 1.5
COc1ccc(-n2c(SCC3CNC(=O)O3)nnc2-c2ccc(Cl)cc2)cc1 (configuration not stated) | -1.0
COc1ccc(C(=O)NCc2c(C)oc(C)c2C(=O)O)cc1 | 0.5
O=C(Nc1ccc(F)cc1F)N1CCCN(c2ccc([N+](=O)[O-])cn2)CC1 | -0.9
CC(=O)C1C(c2ccc(Cl)cc2)NC(=O)NC1(O)C(F)(F)F (configuration not stated) | -0.3
C/C(=N\Nc1cc(C(F)(F)F)ccc1Cl)c1ccncc1 | 0.7
Cc1cc(NC(=O)c2cccnc2Cl)ccc1NC(=O)c1cc2ccccc2o1 | -0.9
Cc1ccc(C(=O)N(c2c(C)n(C)n(-c3ccccc3)c2=O)C(C)C)cc1 | -1.6
Cc1ccc(C(=O)Nc2cccc(C(=O)N/N=C/c3ccccc3F)c2)cc1 | -0.9
O=S(=O)(Nc1ncccn1)c1ccc(NS(=O)(=O)c2cccc(Cl)c2Cl)cc1 | -1.2
C=CCNc1oc(-c2cccc3ccccc23)nc1C#N | -0.1
CC1CCCCN1C(=S)NC(=O)c1cccs1 (configuration not stated) | -1.5
CCc1nc(NC2CCCCC2)c(C#N)c2c1COC(C)(C)C2 | 0.1
O=C(Nc1nnc(SCc2ccccc2F)s1)c1ccco1 | -0.1
COc1ccc(-c2csc(NC(=O)c3cccs3)c2C(=O)O)cc1OC | -0.1
COc1ccc(C(C)=O)cc1COC(=O)CCNS(=O)(=O)c1ccc(C)c(C)c1 | -2.4
COc1ccc(CCNC(=O)c2cn3ccc(C)cc3n2)cc1OC | -2.5
CCOc1c2ccc(C(=O)NCc3cc(C(F)(F)F)cc(C(F)(F)F)c3)cc2nn1CCOC | -0.1
Cc1c(-c2ccccc2)nc2ccccc2c1C(=O)O | -0.7
CCn1c(=O)c2ccccc2n2c(SCC(=O)N3CCCc4ccccc43)nnc12 | 0.0
O=C(Nc1ccc(Oc2ccc(Cl)cc2)c(Cl)c1)c1cc(I)cc(I)c1O | -0.6
COc1cccc(NC(=O)COC(=O)CCS(=O)(=O)c2ccc(C)cc2)c1 | -0.7
CCN(CC)CCCNC(=O)Cn1ncn2cccc2c1=O | -1.5
COc1ccc(/C=C(\C#N)C(=O)OCC(=O)NCc2ccco2)cc1 | -1.5
COc1cc2nc(NCCCN3CCN(C)CC3)n3nc(-c4ccccc4)nc3c2cc1OC | -4.3
CCN(CC)C(=O)CSc1ccccc1N | -1.4
COC(=O)CNC(=O)COc1ccccc1 | 0.3
CCOC(=O)N/N=C/c1cn(Cc2ccccc2Cl)c2ccccc12 | -1.1
CCCN1C(=O)c2ccc(C(=O)Nc3cc(C)ccc3O)cc2C1=O | 2.0
COc1cccc2c(=O)n(CC(=O)Nc3ccccc3)ccc12 | 0.7
O=C(NCC1COc2ccccc2O1)C1CCN(S(=O)(=O)c2cccc3nsnc23)CC1 (configuration not stated) | -1.1
CC(C)C(NCc1c(Cl)cccc1Cl)C(=O)O (configuration not stated) | -0.1
CCCC(=O)OCC(=O)Nc1ccc2c(c1)OCO2 | 0.2
COc1ccc(C(=S)N2CCOCC2)cc1OC(=O)c1ccc(C)cc1 | -1.7
COC(=O)c1c(N)sc(Cc2ccccc2)c1C | 2.5
Nn1c(SCC(=O)NCc2ccccc2)nnc1C1CC1 | -1.0
CN(C)C1(CNC(=O)C2CCN(S(=O)(=O)c3cccc(C(F)(F)F)c3)CC2)CCCCC1 | -0.9
CCCCN1C2CCCC1CC(NC(=O)C1CCCCC1)C2 (configuration not stated) | -1.3
O=C(Nc1ccc(S(=O)(=O)N2CCCCCC2)cc1)c1[nH]ncc1[N+](=O)[O-] | -1.1
CCc1sc(NC(=O)COC)nc1-c1ccccc1 | -0.1
COc1cc(C(=O)NCCNC(=O)c2cnccn2)cc(OC)c1OC | -1.3
COCCn1nnnc1C(c1ccccn1)N1CCN(c2cc(C)ccc2C)CC1 (configuration not stated) | 0.3
CCOc1ccc(OCC)c(NC(=O)C2CCCN(S(=O)(=O)c3cnc[nH]3)C2)c1 (configuration not stated) | -2.1
CCOc1ccc(/C=N/NC(=O)CSc2ccccn2)cc1O | 0.3
CCCC(C(=O)NC(C)(C)C)N(Cc1ccc(F)cc1)C(=O)c1snc(C(N)=O)c1N (configuration not stated) | -2.5
COC(=O)COc1ccc2c(=O)c(-c3ccccc3)coc2c1 | -1.9
O=C(OCCOc1ccccc1Cl)c1ccc(-n2cnnn2)cc1 | -0.4
CCCN1C2CCCC1CC(NC(=S)Nc1cc(C)cc(C)c1)C2 (configuration not stated) | -0.6
CSc1nc(Cl)cc(Nc2ccc(O)cc2)n1 | 3.4
CCCCn1c(N)c(N(CC(C)C)C(=O)c2cc3c(s2)CCCCC3)c(=O)[nH]c1=O | -0.4
COc1ccc2[nH]c(C)c(CCNC(=S)Nc3cccc(C)c3)c2c1 | 0.1
CS(=O)(=O)N1CCC(C(=O)Nc2ccc(Cl)cc2)CC1 | 1.0
CCc1ccc(NC(=O)c2cc(C)on2)cc1 | -0.4
O=C(Nc1nc(-c2ccc(-c3ccccc3)cc2)cs1)C1=COCCO1 | -0.7
O=S(=O)(c1ccc(C2CCCCC2)cc1)N1CCOCC1 | 0.9
Cc1cc(C)c(C#N)c(Nc2cccc(Br)c2)n1 | -0.7
O=C(O)c1ccc(Sc2nnc3ccccn23)c([N+](=O)[O-])c1 | -0.4
CC(C)C(=O)NC(Nc1cccc2cccnc12)C(Cl)(Cl)Cl (configuration not stated) | -1.3

The list goes on:
SMILES | STK33 inh
O=C1CC(c2ccccc2)=Nc2ccc(Br)cc2N1 | -1.1
N=C1C(c2nc3ccccc3[nH]2)=C(O)CN1c1ccccc1 | -0.8
Cc1ccccc1/C=N\NC(=O)c1ccc(Cn2cccn2)o1 | -1.7
O=S(=O)(c1ccccc1)c1cnc(-c2ccccc2)nc1N1CCCCC1 | -0.6
CC12CN(Cc3ccccc3)CC(C)(CN(Cc3ccccc3)C1)C2=O | -1.3

3 records drawn at random from the list so far, as already listed:
SMILES | STK33 inh
O=C1CC(c2ccccc2)=Nc2ccc(Br)cc2N1 | -1.1
N=C1C(c2nc3ccccc3[nH]2)=C(O)CN1c1ccccc1 | -0.8
Cc1ccccc1/C=N\NC(=O)c1ccc(Cn2cccn2)o1 | -1.7

Entries shown so far containing a furan ring, fused or not, in the order listed:
SMILES | STK33 inh
CS(=O)(=O)N1CCN(c2ccccc2NC(=O)CSc2nnc(-c3ccco3)o2)CC1 | -0.3
CCOC(=O)C1(Cc2cccc(OC)c2)CCCN(C(=O)c2ccc(OC)o2)C1 (configuration not stated) | -1.3
O=C(Nc1nccs1)c1ccc(-c2ccc(F)c(Cl)c2)o1 | -0.3
O=C(N/N=C\c1ccc(COc2ccc([N+](=O)[O-])cc2)o1)c1cccc(Cl)c1 | -1.0
O=C(NCc1ccco1)c1cc([N+](=O)[O-])ccc1N1CCCCC1 | -2.1
Cc1cc(C(=O)N2CCN(c3ncccn3)CC2)c(C)o1 | -0.3
CC(C)[C@H](NC(=O)[C@H]1N2C(=O)c3ccccc3C2SC1(C)C)C(=O)NCc1ccco1 (some centres not stated) | -2.3
COc1ccc(N2CCN(C(c3ccco3)c3sc4nc(C)nn4c3O)CC2)cc1 (configuration not stated) | -1.4
O=C(N/N=C\C=C\c1ccco1)C1COc2ccccc2O1 (configuration not stated) | 1.5
COc1ccc(C(=O)NCc2c(C)oc(C)c2C(=O)O)cc1 | 0.5
Cc1cc(NC(=O)c2cccnc2Cl)ccc1NC(=O)c1cc2ccccc2o1 | -0.9
O=C(Nc1nnc(SCc2ccccc2F)s1)c1ccco1 | -0.1
COc1ccc(/C=C(\C#N)C(=O)OCC(=O)NCc2ccco2)cc1 | -1.5
Cc1ccccc1/C=N\NC(=O)c1ccc(Cn2cccn2)o1 | -1.7
